Screening data from PubChem.
RE007 growth inh: less growth of the S. pombe RE007 Vpr strain | hit rate 0.21% among 360,000 | S. pombe RE007 Vpr strain, BacTiter-Glo ATP luminescence, 24 h; control for the full effect not named in the record | Potency, µM (highest dose often 92.2 µM), for the others: at the highest dose activity change, negative = less growth; active = well fitted falling curve with a large enough effect; inconclusive = small, poorly fitted or top-dose-only effect; inactive = no such curve, though single readings can be large or run the other way;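 also: % is scaled to controls: 0 for no effect and ±100 for the full control effect; nearly all actives have a fitted effect of over 50% in size; the assay follows cell death caused by Vpr and the record does not say whether a fall means rescue or toxicity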
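Fission yeast strain RE007, carrying one chromosomally integrated HIV-1 vpr copy, was seeded at OD 0.01 in PMG+AL medium with 23 nL pinned compound. After 24 h at 30 °C and 99% humidity, viability was read by BacTiter-Glo luminescence.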
SARS PLpro yeast: inhibitors of SARS-CoV papain-like protease in yeast; hit rate 0.19% among 330,000; Potency, µM (titrated, usually from 32.9 µM), for the others: at the top dose activity, positive = growth rescue; AID 485353; S. cerevisiae expressing SARS-CoV PLpro, growth rescue; control for the full effect not named in the record; active means well fitted rising curve with a large enough effect; inconclusive means small, poorly fitted or top-dose-only effect; inactive means no such curve, though single readings can be large or run the other way; also: 0% is about no effect; nearly all actives have a fitted effect of over 55% in size; growth read by luminescence after 48 h
NS1 function inh: inhibitors of influenza NS1 protein function; S. cerevisiae slowed by influenza A NS1, growth recovery by OD600; Potency, µM (doses to about 46.1 µM), for inactives: at the top dose activity, positive = more growth; hit rate 0.4% among 270,000; AID 2326; active means well fitted rising curve with a large enough effect; inconclusive means small, poorly fitted or top-dose-only effect; inactive means no such curve, though single readings can be large or run the other way; also: nearly all actives have a fitted effect of over 50% in size
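Recovery from NS1-induced slow growth read by OD600 in budding yeast switched to galactose assay medium (pH 6.0, -URA) at 1:100 dilution. Compound 23 nl per well; the matching strain lacking NS1 serves as control.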
StopGo reporter: FMDV 2A StopGo reporter, luciferase signal; Potency, µM (series often up to 57.9 µM), for the others: top-dose signal change, negative = less light; human cells with a luciferase reporter of 2A StopGo recoding; control for the full effect not named in the record; hit rate 1.2% among 410,000; active = well fitted falling curve with a large enough effect; inconclusive = small, poorly fitted or top-dose-only effect; inactive = no such curve, though single readings can be large or run the other way; tested in HEK293T cells; also: % is scaled to controls: 0 for no effect and ±100 for the full control effect; nearly all actives have a fitted effect of over 45% in size; luciferase light after 4 h
Marburg entry inh: inhibitors of Marburg virus binding or cell entry. Marburg virus pseudotyped entry inhibition, cell reporter; control for the full effect not named in the record; about a third of the inactives were read at about 46 µM. Potency, µM (top dose mostly 37.8 µM), without a hit: top-dose activity change, negative = inhibition, actives largely listed as inhibitors. hit rate 1.8% among 300,000. AID 540276; active = well fitted inhibition curve with a large enough effect; inconclusive = small, poorly fitted or top-dose-only effect, or effect the other way; inactive = flat fitted curve, though single readings scatter; tested in HEK293 cells; about a fifth of its hits are not listed in these tables; also: % is scaled to controls: 0 for no effect and ±100 for the full control effect; luciferase read-out
Cruzain Triton: inhibitors of Trypanosoma cruzi cruzain with detergent | P25779 | purified cruzain, Z-FR-AMC fluorescence, 0.01% Triton | Potency, µM, for inactives: max response, negative = inhibition, actives largely listed as inhibitors | hit rate 0.43% among 200,000 | AID 1478;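 also: plate controls were neutral wells for no effect and buffer without enzyme for full effect; nearly all actives have a fitted effect of over 40% in size; top concentration of the series not given in the record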
Target sequence (P25779 123-467 limits assumed): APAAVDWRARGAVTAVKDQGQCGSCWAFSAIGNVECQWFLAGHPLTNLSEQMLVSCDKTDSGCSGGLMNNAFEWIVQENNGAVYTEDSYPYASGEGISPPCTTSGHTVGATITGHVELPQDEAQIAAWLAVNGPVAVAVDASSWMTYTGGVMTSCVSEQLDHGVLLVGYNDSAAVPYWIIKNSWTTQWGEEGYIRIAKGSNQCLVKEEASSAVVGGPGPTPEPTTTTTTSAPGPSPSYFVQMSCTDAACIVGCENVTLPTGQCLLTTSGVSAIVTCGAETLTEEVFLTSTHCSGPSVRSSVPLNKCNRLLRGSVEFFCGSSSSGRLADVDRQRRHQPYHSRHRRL
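Sodium acetate buffer (100 mM, pH 5.5) containing 5 mM DTT and 0.01% Triton X-100 hosted 1.5 nM cruzain and test compound for 15 min at room temperature. Cleavage of 2 uM Z-FR-AMC was then tracked by fluorescence.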
LASV entry inh: inhibitors of Lassa virus binding or cell entry. Lassa virus pseudotype entry inhibition, cell reporter; control for the full effect not named in the record. Potency, µM (titrated, usually from 37.9 µM), for inactives: top-dose activity change, negative = inhibition, actives largely listed as inhibitors. hit rate 1.2% among 300,000; active means well fitted inhibition curve with a large enough effect; inconclusive means small, poorly fitted or top-dose-only effect, or effect the other way; inactive means flat fitted curve, though single readings scatter; tested in HEK293 cells; also: % is scaled to controls: 0 for no effect and ±100 for the full control effect; nearly all actives have a fitted effect of over 50% in size; luciferase read-out
Cruzain noTriton: cruzain (T. cruzi) inhibition without detergent. Potency, µM, for the others: max response, negative = inhibition, most hits filed as inhibitors. hit rate 2.3% among 200,000. P25779. purified cruzain, Z-FR-AMC fluorescence, no detergent;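 also: plate controls were enzyme without inhibitor for no effect and buffer without enzyme for full effect; nearly all actives have a fitted effect of over 40% in size; top concentration of the series not given in the record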
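Purified cruzain at 1.5 nM, pre-incubated 15 min with compound at room temperature in 100 mM sodium acetate pH 5.5, 5 mM DTT, 0.00005% Triton X-100. Reaction started with 2 uM Z-FR-AMC; AMC fluorescence increase over 60 s gives rate.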
Starred values were filed as active, the others as inactive; ? = inconclusive; . = no result given; & = joins results of further samples; [ ] = another dose, or the depositor's remark. Unless noted, calls follow the shape of the dose curve; as a rule, active = well fitted curve in the direction sought with a large enough effect; inconclusive = small, poorly fitted or top-dose-only effect, or another doubt; inactive = no such curve, though single readings can be large; an effect the other way counts as inactive or inconclusive. Potency is read from the fitted curve at half-maximal effect.

SMILES	RE007 growth inh	SARS PLpro yeast	NS1 function inh	StopGo reporter	Marburg entry inh	Cruzain Triton	LASV entry inh	Cruzain noTriton
COc1ccc(CCNC2CC(=O)N(CCc3ccccc3)C2=O)cc1 (stereo not drawn)	-2.0%	-16.8%	-10.0%	.	22.5%	-3.3%	-23.0%	4.0%
Cc1cc(-c2c(C)[nH]n(-c3ccccc3)c2=O)n(-c2ccccc2)n1	5.6%	-9.7%	?	1.5%	1.5%	0.1%	-1.4%	-4.0%
CCCCN(C)CCNC(=O)C1CCN(c2nc3ccc(CC)cc3s2)CC1	.	.	.	0.4%	?	-5.8%	25.9%[46.1 µM]	3.4%
C=CCN(C(=O)CSC1=NC(=O)CN1C(C)=O)c1nc(C)c(-c2ccccc2)s1	-15.8%	0.4%	3.6%	-1.1%	-17.0%[46.1 µM]	.	11.6%	.
CCN(C(=O)CSc1nnc(-c2ccccc2)o1)c1c(N)n(Cc2ccccc2)c(=O)[nH]c1=O	13.6%	?	.	-3.5%	14.4%[46.1 µM]	.	-15.7%	.
Cc1cc(C)c2c(-n3cccc3)c(NC(=O)OCc3ccccc3)sc2n1	5.7%	2.5%	4.8%	?	?	1.1%	-25.6%	-11.8%
COc1ccccc1CNC(=O)c1cc2c(s1)CS(=O)(=O)C2	6.3%	.	-3.9%	-3.8%	1.9%	1.1%	-12.2%	-13.9%
COc1ccc(Br)cc1CNC(=O)c1ccc2c(c1)N(C)CCS2	-7.4%	-8.6%	-13.0%	-13.2%	.	.	.	.
NC(=O)CSc1nnnn1-c1ccccc1Cl	-14.7%	1.1%	4.0%	0.0%	13.0%[46.1 µM]	.	12.5%	.
O=C(Cn1nnc2ccccc2c1=O)NCc1ccc(Cl)cc1	4.2%	1.2%	.	10.5%	18.0%[46.1 µM]	.	-25.5%	.
CCOC(=O)CN1CC23C=CC(O2)C(C(=O)Nc2ccc(F)cc2)C3C1=O (stereo not drawn)	1.8%	0.6%	3.6%	-15.9%	-10.4%[46.1 µM]	4.6%	-0.7%	-8.3%
C=C(C)COc1ccc(C2NC(=O)c3ccccc3O2)cc1OCC (stereo not drawn)	-0.2%	-8.4%	-5.7%	?	1.5%	.	-28.8%	.
CC(C)(C)NC(=O)NC(=O)COC(=O)C1c2ccccc2Oc2ccccc21	0.9%	0.6%	3.3%	?	?	.	.	.
CCCN(C(=O)CSCC(=O)Nc1cccc(C)c1)c1c(N)n(Cc2ccccc2)c(=O)[nH]c1=O	-14.2%	-1.9%	3.4%	-19.3%	-16.1%	.	12.5%	.
CC(C)(C)SCCNC(=O)c1ccc(Cl)c([N+](=O)[O-])c1	12.8%	-45.5%	-24.6%	6.7%	?	0.4%	4.5%	-9.3%

Two consecutive entries from above, quoted:
SMILES	RE007 growth inh	SARS PLpro yeast	NS1 function inh	StopGo reporter	Marburg entry inh	Cruzain Triton	LASV entry inh	Cruzain noTriton
C=C(C)COc1ccc(C2NC(=O)c3ccccc3O2)cc1OCC (stereo not drawn)	-0.2%	-8.4%	-5.7%	?	1.5%	.	-28.8%	.
CC(C)(C)NC(=O)NC(=O)COC(=O)C1c2ccccc2Oc2ccccc21	0.9%	0.6%	3.3%	?	?	.	.	.

The main list resumes with the 6 entries that preceded the break.
SMILES	RE007 growth inh	SARS PLpro yeast	NS1 function inh	StopGo reporter	Marburg entry inh	Cruzain Triton	LASV entry inh	Cruzain noTriton
O=C(Cn1nnc2ccccc2c1=O)NCc1ccc(Cl)cc1	4.2%	1.2%	.	10.5%	18.0%[46.1 µM]	.	-25.5%	.
CCOC(=O)CN1CC23C=CC(O2)C(C(=O)Nc2ccc(F)cc2)C3C1=O (stereo not drawn)	1.8%	0.6%	3.6%	-15.9%	-10.4%[46.1 µM]	4.6%	-0.7%	-8.3%
C=C(C)COc1ccc(C2NC(=O)c3ccccc3O2)cc1OCC (stereo not drawn)	-0.2%	-8.4%	-5.7%	?	1.5%	.	-28.8%	.
CC(C)(C)NC(=O)NC(=O)COC(=O)C1c2ccccc2Oc2ccccc21	0.9%	0.6%	3.3%	?	?	.	.	.
CCCN(C(=O)CSCC(=O)Nc1cccc(C)c1)c1c(N)n(Cc2ccccc2)c(=O)[nH]c1=O	-14.2%	-1.9%	3.4%	-19.3%	-16.1%	.	12.5%	.
CC(C)(C)SCCNC(=O)c1ccc(Cl)c([N+](=O)[O-])c1	12.8%	-45.5%	-24.6%	6.7%	?	0.4%	4.5%	-9.3%
CCN(c1ccc(OC)cc1)S(=O)(=O)c1nnc(NC(=O)COc2ccc(F)cc2)s1	2.1%	1.1%	2.4%	-19.0%&-13.4%	.	-3.5%	11.2%[46.1 µM]	-25.2%
Cc1ccccc1C(=O)N1CCC(C(=O)N2CCN(S(=O)(=O)c3ccccc3F)CC2)CC1	-11.3%	-1.6%	3.3%	0.0%	-4.3%	.	11.2%	.
O=C(NCCc1c[nH]c2ccccc12)C(=O)NCC1OCCN1S(=O)(=O)c1ccc(Cl)cc1 (stereo not drawn)	0.6%	-13.5%	27.3%	?	-37.5%	-2.0%	?	?
COc1ccc(N(CC(=O)Nc2cc([N+](=O)[O-])ccc2C)S(C)(=O)=O)cc1OC	5.4%	-0.6%	0.9%	10.4%	-3.6%[46.1 µM]	.	3.7%	.
CN(CC(=O)Nc1ccc(Cl)c(C(F)(F)F)c1)C(=O)CCN1C(=O)C2CC=CCC2C1=O (stereo not drawn)	-6.4%	-3.4%	.	-15.5%	-0.6%	.	-30.8%	.
CC(=O)NC(Cc1ccc(C)cc1)C(=O)NC1CCN(c2ncccc2[N+](=O)[O-])CC1 (stereo not drawn)	-3.6%	3.2%	14.5%	-7.2%	-19.4%	-7.1%	21.8%	-2.8%
Cc1c(/N=C(\[O-])Nc2ccc(Br)cc2)sn[n+]1C	-14.2%	-0.8%	-1.0%	-40.3%	.	.	.	.
Fc1ccccc1/C=N/Nc1ncnc2ccccc12	-28.0%	4.1%	.	-7.2%	?	.	?	.
Cc1ccc(-n2ncc(C(=O)NCc3ccc4c(c3)OCO4)c2C2CCN(C(=O)OC(C)(C)C)CC2)c(C)c1	.	.	.	-29.5%	.	-9.2%	?	-13.8%
CCn1c(=O)cc(SCC(=O)N(C)Cc2ccccc2)c2ccccc21	4.5%	-7.1%	0.1%	7.7%	?	-7.7%	-2.2%	12.6%
COc1cc(/C=C/C(=O)OCC(=O)NC(=O)NC(C)(C)C)ccc1OCC#N	8.4%	14.2%	22.5%	0.0%	?	-14.4%	?	-23.0%
COC(=O)c1ccc(C(c2c(N)n(CC(C)C)c(=O)[nH]c2=O)N2CCN(c3ccccc3)CC2)cc1 (stereo not drawn)	9.1%	-4.4%	-28.9%	-10.5%	6.0%&6.0%	5.8%	?	3.7%
Cn1c(=O)oc2cc(S(=O)(=O)Nc3ccc(O)cc3)ccc21	10.1%	0.5%	-0.8%	4.9%&13.7%	.	0.2%	-28.1%[46.1 µM]	-6.4%
COc1cccc(C2Nc3ccccc3C(=O)N2c2ccc(F)cc2)c1O (stereo not drawn)	-6.4%	-1.6%	-0.6%	27.2%	?	.	0.6%[46.1 µM]	.
O=C(NCCCN1CCc2ccccc2C1)C1CCN(S(=O)(=O)N2CCCC2)CC1	-2.5%	1.6%	0.9%	.	?	2.9%	4.2%	-12.5%
O=C(CCS(=O)(=O)c1ccccc1)NCCS(=O)(=O)c1ccccc1	-6.0%	2.0%	.	-11.3%	-3.7%[46.1 µM]	.	5.7%	.
O=C(Nc1ccsc1C(=O)NC1CCCCC1)c1ccc(F)cc1	-0.9%	1.1%	-3.6%	-16.0%	?	-4.4%	-6.8%	2.0%
